Screens deposited in PubChem by National Center for Advancing Translational Sciences (NCATS).
miR-21 FLuc: qHTS Assay for Modulators of miRNAs and/orActivators of miR-21. 340,000 tested, under 10 active. AID 2288, 2010. HeLa miR-21 FLuc reporter, luciferase, 48 h. Potency, µM (titrated, usually from 38.3 µM), inactives show at the highest dose reporter change, positive = more light; active = well fitted rising curve with a large enough effect; inconclusive = small, poorly fitted or top-dose-only effect; inactive = no such curve, though single readings can be large or run the other way;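 further: % of control where 0% means no effect; miR-21 action dims this reporter so a rising signal means less miR-21 action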
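Compounds were titrated across several concentrations (up to approximately 40 uM) and incubated 48 hours with HeLa miR-21-FLuc reporter cells (miR-21 target sequence downstream of FLuc, endogenous miR-21). Readout was firefly luciferase luminescence after lytic detection reagent.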
GLA inh pH 4.5: qHTS Assay for Inhibitors of Human alpha-Galactosidase at pH 4.5; activity change, negative = inhibition, % at 105 µM; Alpha-galactosidase A (Homo sapiens), P06280; 230,000 tested, under 10 active; purified enzyme, 4-MU-alpha-Gal fluorescence, pH 4.5; inconclusive = small, poorly fitted or top-dose-only inhibition, or a rising curve; inactive = flat fitted curve, though single readings scatter; no compound was filed as active;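 further: 0% = full activity with enzyme and -100% = basal without enzyme; dose as in the result columns while the protocol names 77 µM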
Rango complex inh: qHTS Assay for Inhibitors of Rango (Ran-regulated importin-beta cargo) - Importin beta complex formation; Rango CFP/YFP FRET sensor + importin beta, 45 min; 0.031% of 340,000 active; Importin subunit beta-1 (Homo sapiens), Q14974; Potency, µM (top dose mostly 92.2 µM), for inactives: at the highest dose inhibition of complex formation; AID 540263, 2011; active = rising FRET ratio curve, often small or poorly fitted; inconclusive = mostly compound fluorescence or quenching in the first reads; inactive = flat curves in all reads;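 further: potency means the concentration at half of the fitted maximal effect; 0% = DMSO wells and 100% = buffer wells lacking importin beta; nearly all actives have a fitted effect of over 15% in size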
Target sequence (Q14974 whole entry, looked up): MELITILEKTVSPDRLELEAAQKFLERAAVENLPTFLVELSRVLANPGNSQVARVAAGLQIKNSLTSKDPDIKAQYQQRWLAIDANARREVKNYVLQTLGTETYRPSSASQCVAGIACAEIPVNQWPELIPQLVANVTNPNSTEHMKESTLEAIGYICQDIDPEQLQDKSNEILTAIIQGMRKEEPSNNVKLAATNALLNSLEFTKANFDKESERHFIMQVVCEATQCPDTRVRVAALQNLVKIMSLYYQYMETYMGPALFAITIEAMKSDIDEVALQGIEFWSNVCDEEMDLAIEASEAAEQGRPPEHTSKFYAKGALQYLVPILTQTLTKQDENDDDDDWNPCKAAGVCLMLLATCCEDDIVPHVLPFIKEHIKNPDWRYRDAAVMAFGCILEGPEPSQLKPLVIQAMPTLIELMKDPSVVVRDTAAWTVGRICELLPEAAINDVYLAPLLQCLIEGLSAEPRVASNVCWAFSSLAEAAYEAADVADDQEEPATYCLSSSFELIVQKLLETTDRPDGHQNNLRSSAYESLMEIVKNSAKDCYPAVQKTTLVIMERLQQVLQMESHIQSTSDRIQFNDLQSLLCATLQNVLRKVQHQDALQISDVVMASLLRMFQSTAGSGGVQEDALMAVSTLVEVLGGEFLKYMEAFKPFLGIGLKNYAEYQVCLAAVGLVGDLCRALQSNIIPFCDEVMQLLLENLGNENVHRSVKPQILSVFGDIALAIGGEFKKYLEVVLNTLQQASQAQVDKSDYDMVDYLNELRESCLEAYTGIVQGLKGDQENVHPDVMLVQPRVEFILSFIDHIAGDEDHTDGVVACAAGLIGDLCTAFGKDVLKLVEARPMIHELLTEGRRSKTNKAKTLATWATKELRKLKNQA
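Inhibition scored from the CFP 486 nm/YFP 530 nm FRET ratio 45 min after adding 0.125 microM importin beta to 50 nM Rango biosensor preincubated 5 min with compound (room temperature, PBS with DTT, Tween-20, BSA). No-importin wells as positive control.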
Rango dissoc inh: qHTS Assay for Inhibitors of RanGTP induced Rango (Ran-regulated importin-beta cargo) - Importin beta complex dissociation; Snurportin-1 (Homo sapiens) + GTP-binding nuclear protein Ran (Homo sapiens) + Importin …; Biochemical FRET Rango-importin beta, RanGTP-induced dissociation; Potency, µM (highest dose often 46.1 µM), for the others: at the top dose activity change, negative = inhibition; 0.071% of 340,000 active; AID 540253, 2011; active means falling FRET ratio curve, often poorly fitted, with flat reads before Ran was added; inconclusive means other falling curves, or compound fluorescence or quenching; inactive means flat or rising ratio curve;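 further: potency means the concentration at half of the fitted maximal effect; % of control where 0% means no effect; nearly all actives have a fitted effect of over 45% in size; -100% = wells without RanGTP and RCC1; the record marks most hits as doubtful in a second field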
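Rango FRET biosensor (snurportin-1 IBB flanked by N-terminal EYFP and C-terminal CFP10) at 0.1 uM, with 0.25 uM importin beta in PBS, 1mM DTT, 0.02% Tween-20, 0.1% BSA. 0.6 uM Ran, 2mM GTP and 0.2 uM RCC1 were then added for 45 min at room temperature. Inhibition read as loss of FRET rise.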
* marks the source's active call; other numbers are inactive results; ? = inconclusive; . = no result given; & = joins results of further samples.

SMILES | miR-21 FLuc | GLA inh pH 4.5 | Rango complex inh | Rango dissoc inh
Cc1cc(CNC(=O)COc2ccccc2F)c2ccccc2n1 | -19% | -2 | 1.8% | -12%
COc1ccccc1C/C(N)=N/O | -3% | 5 | 2.9% | 20%
O=C(Cc1ccc(O)cc1)NCCNC(=S)NCc1ccccc1 | -7% | -4 | 4.0% | 1%
O=C1c2cccc3cccc(c23)C(=O)N1OS(=O)(=O)c1ccc(Br)cc1 | -2% | 1 | 0.0% | 13%
Cc1ccc(C(=O)NCC(=O)OCC(=O)N(CC(C)C)c2c(N)n(Cc3ccccc3)c(=O)[nH]c2=O)cc1C | . | . | ? | 15%
C=C(C)C(=O)Nc1cccc(C2=NOC3(C2)C[C@@H](C(N)=O)N(C(=O)c2ccc(Cl)cc2)C3)c1 (stereo not given in full) | 6% | -4 | -4.6% | -4%
COc1ccc2c(c1)c(=O)oc1cc(O)ccc12 | -33% | 4 | ? | ?
COCCn1c(=O)[nH]c2cc(C(=O)NC3CCCCCC3)ccc2c1=O | 3% | 30 | 4.5% | 12%
O=C(/C=C/c1ccc(Cl)c([N+](=O)[O-])c1)c1cccnc1 | -2% | -2 | 3.4% | 0%
O=C(CN1C(=O)NC2(CCCC2)C1=O)N1CCN(S(=O)(=O)c2ccccc2[N+](=O)[O-])CC1 | . | . | -3.9% | -4%
CN1CCN(NC(=O)c2ccc(S(=O)(=O)N3CC4(C)CC3CC(C)(C)C4)cc2)CC1 (stereo not given) | 1% | -10 | 0.9% | -4%
Cc1cc(C(=O)N/N=C2\CCCC(=O)C2)c(C)o1 | . | . | 1.0% | -21%
CCN1CCN(c2cc3c(cc2F)c(=O)c(S(=O)(=O)c2ccccc2)cn3C)CC1 | -3%&4% | . | 0.0% | 10%
NC1=NC2(CCCCC2)n2c(nc3ccccc32)N1 | -2% | 7 | 2.6% | -2%
COc1ccccc1NC(=O)c1oc2ccccc2c1NC(=O)c1ccco1 | -1% | 15 | -0.4% | 16%
COc1ccccc1C(=O)Nc1nnc(S(=O)(=O)N2CCOCC2)s1 | -31% | . | -0.2% | -6%
COc1cccc(C2C3=C(N=c4s/c(=C\c5ccc(O)cc5)c(=O)n42)c2ccccc2CC3)c1OC (stereo not given) | -4% | 4 | -6.5% | -18%
O=C(CN1CCN(C(=O)C2CCCO2)CC1)Nc1ccc(Cl)cc1 (stereo not given) | 0% | . | 0.2% | 0%
O=C(CSc1nc2ccc([N+](=O)[O-])cc2[nH]1)NC1CCCCC1 | 16% | 4 | 7.7% | 3%
O=C(Cc1ccc(Cl)cc1)Nc1ccc(N2CCCC2)cc1 | -6% | 2 | 4.3% | 2%
CCN1C(=O)c2cccc3c(S(=O)(=O)Nc4ccncc4)ccc1c23 | -9% | -11 | ? | ?
N#C/C(=N\Nc1ccccc1)C(=N)N1CCOCC1 | -51% | -18 | -1.4% | 20%
Cc1ccc(-c2nc(=S)c3c(n2Cc2ccco2)CCCC3)cc1 | -4% | 11 | 0.1% | 1%
CCOC(=O)CSC1=C(C#N)C(c2ccc(F)cc2)C(C(C)=O)=C(C)N1 (stereo not given) | -10% | -6 | -2.7% | -5%
Brc1ccc2c(c1)C(c1cccs1)=NNC(c1cccnc1)=N2 | -4% | 0 | 4.4% | 7%
Cc1ccc(CCC(=O)Nc2ccc(Cl)cc2)o1 | -4% | . | -1.2% | 2%
COc1ccc(S(=O)(=O)N2CCN(C(=O)c3cccs3)CC2)cc1 | 0% | 2 | -3.0% | -15%
COc1ccccc1OCCCCOc1ccccc1C(C)=O | 2% | -8 | 5.0% | 0%
O=C(COc1ccccc1Cc1ccccc1)NCCCN1CCOCC1 | 0% | 4 | -3.4% | 0%
O=C(NC(Cc1ccccc1)C(=O)Oc1ccc2c(C(F)(F)F)cc(=O)oc2c1)OCc1ccccc1 (stereo not given) | -2% | 1 | ? | ?
COc1ccc(C(C(O)C(=O)c2c[nH]c3ccccc23)N2CCN(c3ccc(OC)cc3)CC2)cc1 (stereo not given) | 6% | -15 | -1.2% | 6%
COc1cc(C(=O)NCCC(=O)NCCN2CCCCCC2)cc(OC)c1OC | 1% | -6 | 3.4% | 0%
CCn1ccnc1CN(C)C(=O)CCc1nnc(CCCc2ccccc2)o1 | -6% | -5 | -2.9% | -19%
CN1CCN(Cc2c(O)ccc3cc(-c4ccccn4)c(=O)oc23)CC1 | -2% | ? | ? | ?
CC(=O)N1c2ccccc2C(=O)C1N(C)c1ccc(C)cc1 (stereo not given) | -16% | . | 1.2% | 1%
CCN1C(=O)c2ccccc2S(=O)c2ccc(C(=O)NCCN(CC(C)C)CC(C)C)cc21 (stereo not given) | -2% | . | -0.7% | -6%
Cc1ccc(N(CC#N)C(=O)CS(=O)(=O)c2cccc([N+](=O)[O-])c2)cc1 | -5% | . | -0.3% | 3%
CCCC(=O)Nc1nc2ccc(NC(=O)c3ccccc3F)cc2s1 | -3% | 4 | 0.5% | 20%
CC1CC(=O)C2=C(C1)Nc1nc3ccccc3n1C2c1cccnc1 (stereo not given) | 5% | 13 | ? | 6%
Cc1cc(C)n(C(=O)Cc2cn3ccsc3n2)n1 | -1% | -3 | -1.4% | 2%
CS(=O)(=O)N1CCc2cc(S(=O)(=O)Nc3ccc4oc5c(c4c3)CCCC5)ccc21 | 13% | -12 | 9.2% | -4%
COC(=O)c1ccc(Cl)c(NC(=O)c2ccc(-c3ccccc3)cc2)c1 | 0% | 0 | . | .
S=C(NCc1cccnc1)Nc1ccc(Cl)cc1Cl | -5% | -4 | -0.5% | -1%
O=C(CNC(=O)c1ccccc1F)N/N=C/c1cn[nH]c1-c1ccccc1 | 2% | 3 | 0.3% | 1%
CC(C)N(Cc1cnn(C)c1)C(=O)c1ccc(OC2CCN(Cc3ccccn3)CC2)cc1 | 1% | . | -5.4% | -20%
CCCSc1nc(SCC(=O)NCc2ccccc2)c2c3c(sc2n1)COC(C)(CC)C3 (stereo not given) | -1% | -6 | -1.6% | 10%
COc1ccccc1N1CCN(C(=O)c2ccc(NC3=NC4CS(=O)(=O)CC4S3)cc2)CC1 (stereo not given) | -3% | . | 6.1% | -2%
O=C(CSc1nnnn1C1CCCC1)Nc1ccc2c(c1)OCO2 | -4% | -2 | 2.3% | 8%
COc1cccc(NC(=O)CN2CCN(c3ccccc3F)CC2)c1 | 3% | 0 | -1.5% | 7%
CCOc1cc(C(=O)OCc2cc(=O)n3c(C)csc3n2)ccc1OC | . | . | -1.0% | 1%
Next section
SMILES | miR-21 FLuc | GLA inh pH 4.5 | Rango complex inh | Rango dissoc inh
COc1ccc(CC(=O)Nc2c3c(nn2-c2ccccc2C)CS(=O)C3)cc1 (stereo not given) | -1% | -4 | 4.2% | 8%
COc1ccccc1NS(=O)(=O)c1ccc2oc(SCc3ccc(F)cc3)nc2c1 | 15% | 8 | -1.1% | 29%
Cc1cc(C)c(NC(=O)C(C)Sc2nc3ccc(N4C(=O)c5ccccc5C4=O)cc3s2)c(C)c1 (stereo not given) | -2% | -11 | -1.0% | -23%
CC(=O)C1=C(C)NC(SCC(N)=O)=C(C#N)C1c1cccnc1 (stereo not given) | 0% | 3 | ? | -23%
Cc1ccc(CCNC(=O)C2CCC(CNc3c(N4CCCC4)c(=O)c3=O)CC2)cc1 (stereo not given) | -7% | -16 | 0.7% | -5%
O=C(c1ccccc1)c1ccc(OCC(O)CNCc2cccc(Cl)c2)cc1 (stereo not given) | -5% | . | -0.2% | -3%
O=C(Cn1cncc1-c1ccc([N+](=O)[O-])cc1)Nc1ccccc1F | 2% | -5 | -0.6% | 6%
COc1cccc(C(=O)Nc2ccc(C(=O)NCC(C)C)cc2)c1 | -6% | 7 | -0.2% | -4%
CSc1ncc(C(=O)O)c(C)n1 | -3% | 3 | -2.7% | 3%
Cc1ccccc1-n1nnnc1SCC(=O)NNC(=O)c1ccc(NC(=O)CC#N)cc1 | . | . | 0.0% | 1%
Cc1c(NC(=S)NC(=O)Cc2ccccc2)cccc1C(=O)O | -21% | 6 | -0.3% | 10%
Cc1ccc(Cl)cc1NC(=O)COC(=O)c1ccc(COc2ccc3c(C)cc(=O)oc3c2)cc1 | -14% | 0 | . | .
O=C(Nc1ccccc1)c1nnn(Cc2ccccc2)c1NC(=O)C(F)(F)F | -36% | -4 | -1.4% | 9%
CC1(C(=O)N(Cc2ccccc2)Cc2ccccc2)CC1(Br)Br (stereo not given) | -4% | 3 | 3.0% | -5%
COC(=O)C1=C(C)NC(C)=C(C(=O)OC)C1C(=O)OCc1nnc(-c2ccccc2)o1 | . | . | -3.7% | -3%
COc1ccc2c(CC(=O)OCC(=O)Nc3cc(C)c(C)cc3[N+](=O)[O-])coc2c1 | -7% | -5 | -0.2% | 5%
CC(C)c1ccc(NC(=O)c2ccccc2NC(=O)C2CCCCC2C(=O)O)cc1 (stereo not given) | -52% | . | 5.5% | 1%
Cc1cc(C)nc(Sc2ccc(/C=C(\C#N)C(=O)Nc3ccccc3)o2)n1 | -6% | -9 | ? | -18%
Cc1cccc(Nc2nc(N3CCN(C)CC3)nc(N)c2[N+](=O)[O-])c1 | -11% | 3 | -1.1% | -17%
CC(=O)Nc1cccc(-n2nnc(SCC(=O)Nc3ccc(F)c(Cl)c3)n2)c1 | 4% | -9 | 0.7% | 1%
Cc1ccc(NC(=O)COC(=O)c2ccc3c(c2)OCCO3)cc1S(=O)(=O)N1CCOCC1 | 0% | -9 | 0.4% | 1%
CCN1CCC(O)(C(C(=O)OC)c2ccccc2)CC1 (stereo not given) | . | . | -1.9% | -5%
C#CCOCCOCCOCCNc1nc(N2CCN(C(=O)[C@H]([C@@H](C)O)n3cc(CCCCN)nn3)CC2)nc(N2CCN(C(=O)[C@H](Cc3ccc(O)cc3)n3cc(CCO)nn3)CC2)n1 | 3% | 4 | 1.6% | ?
CCN(CC)S(=O)(=O)c1ccc(NC(=O)COC(=O)c2ccc(-n3nc(C)cc3C)cc2)cc1 | -11% | -23 | -3.9% | -25%
CCOc1cc(/C=C2\N=C(C)OC2=O)cc(Cl)c1OCC(=O)OC | . | . | -6.4% | -3%
O=C(Nn1cnnc1)c1ccc(Br)s1 | -5% | 4 | 3.5% | -8%
COc1ccc(CC(=O)NCc2n[nH]c(=S)n2C)cc1 | 5% | 3 | -2.3% | 12%
Cc1cc(Br)ccc1SCC(=O)OCC(=O)N1CCN(C(=O)c2ccco2)CC1 | 1% | -6 | 2.1% | 2%
O=C(O)c1ccc(C(=O)C(=O)c2ccccc2)cc1 | 6% | 5 | -1.7% | 32%
CSc1ncccc1C(=O)OCC(=O)Nc1ccc(Cl)cn1 | . | . | 0.7% | 13%
COc1ccc(OC)c(C(C)NC(=O)C(C)Cc2ccccc2)c1 (stereo not given) | 1% | . | -3.3% | -5%
COc1cccc(CC(=O)Nc2cc(S(=O)(=O)N3CCCCC3)ccc2C)c1 | . | . | 0.3% | 2%
Cc1ccnc(NC(=O)c2ccc(NS(=O)(=O)/C=C/c3ccccc3)cc2)c1 | . | . | 3.5% | 21%

Some values from the results shown:
C#CCOCCOCCOCCNc1nc(N2CCN(C(=O)[C@H]([C@@H](C)O)n3cc(CCCCN)nn3)CC2)nc(N2CCN(C(=O)[C@H](Cc3ccc(O)cc3)n3cc(CCO)nn3)CC2)n1 in Rango complex inh is listed with 1.6%
COc1ccc(OC)c(C(C)NC(=O)C(C)Cc2ccccc2)c1 (stereo not given) in Rango complex inh is listed with -3.3%
COc1cccc(CC(=O)Nc2cc(S(=O)(=O)N3CCCCC3)ccc2C)c1 in Rango dissoc inh is listed with 2%

Some of the compounds tested; the hit share may differ from the screen's.
